GLA inh pH 4.5 – blocks human alpha-galactosidase A at pH 4.5 | P06280 | purified enzyme, 4-MU-alpha-Gal fluorescence, pH 4.5 | activity change, negative = inhibition, % at 105 µM | 230,000 tested, under 10 active | AID 1467; inconclusive = small, poorly fitted or top-dose-only inhibition, or a rising curve; inactive = flat fitted curve, though single readings scatter; no compound was filed as active;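 also: 0% = full activity with enzyme and -100% = basal without enzyme; dose as in the result columns while the protocol names 77 µM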
Rango dissoc inh – prevents RanGTP from dissociating the Rango-importin beta complex; O95149+P62826; Biochemical FRET Rango-importin beta, RanGTP-induced dissociation; Potency, µM (series often up to 46.1 µM), for inactives: at the highest dose activity change, negative = inhibition; 340,000 compounds, 0.071% hits; active means falling FRET ratio curve, often poorly fitted, with flat reads before Ran was added; inconclusive means other falling curves, or compound fluorescence or quenching; inactive means flat or rising ratio curve;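 also: potency is read from the fitted curve at half-maximal effect; % of control where 0% means no effect; nearly all actives have a fitted effect of over 45% in size; -100% = wells without RanGTP and RCC1; the record marks most hits as doubtful in a second field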
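Two FRET readings bracket the reaction: one 5 min after compound meets Rango–importin beta, another 45 min after RanGTP-RCC1 (0.6 uM Ran, 0.2 uM RCC1, 2 mM GTP) is added. Only the second defines inhibition.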
Rango-impB inh – inhibitors of Rango-importin beta complex formation; Q14974; AID 540263; 340,000 compounds, 0.031% hits; Potency, µM (top dose mostly 92.2 µM), for inactives: top-dose inhibition of complex formation; Rango CFP/YFP FRET sensor + importin beta, 45 min; active = rising FRET ratio curve, often small or poorly fitted; inconclusive = mostly compound fluorescence or quenching in the first reads; inactive = flat curves in all reads;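 also: potency is read from the fitted curve at half-maximal effect; 0% = DMSO wells and 100% = buffer wells lacking importin beta; nearly all actives have a fitted effect of over 15% in size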
Target sequence (Q14974 whole entry, looked up): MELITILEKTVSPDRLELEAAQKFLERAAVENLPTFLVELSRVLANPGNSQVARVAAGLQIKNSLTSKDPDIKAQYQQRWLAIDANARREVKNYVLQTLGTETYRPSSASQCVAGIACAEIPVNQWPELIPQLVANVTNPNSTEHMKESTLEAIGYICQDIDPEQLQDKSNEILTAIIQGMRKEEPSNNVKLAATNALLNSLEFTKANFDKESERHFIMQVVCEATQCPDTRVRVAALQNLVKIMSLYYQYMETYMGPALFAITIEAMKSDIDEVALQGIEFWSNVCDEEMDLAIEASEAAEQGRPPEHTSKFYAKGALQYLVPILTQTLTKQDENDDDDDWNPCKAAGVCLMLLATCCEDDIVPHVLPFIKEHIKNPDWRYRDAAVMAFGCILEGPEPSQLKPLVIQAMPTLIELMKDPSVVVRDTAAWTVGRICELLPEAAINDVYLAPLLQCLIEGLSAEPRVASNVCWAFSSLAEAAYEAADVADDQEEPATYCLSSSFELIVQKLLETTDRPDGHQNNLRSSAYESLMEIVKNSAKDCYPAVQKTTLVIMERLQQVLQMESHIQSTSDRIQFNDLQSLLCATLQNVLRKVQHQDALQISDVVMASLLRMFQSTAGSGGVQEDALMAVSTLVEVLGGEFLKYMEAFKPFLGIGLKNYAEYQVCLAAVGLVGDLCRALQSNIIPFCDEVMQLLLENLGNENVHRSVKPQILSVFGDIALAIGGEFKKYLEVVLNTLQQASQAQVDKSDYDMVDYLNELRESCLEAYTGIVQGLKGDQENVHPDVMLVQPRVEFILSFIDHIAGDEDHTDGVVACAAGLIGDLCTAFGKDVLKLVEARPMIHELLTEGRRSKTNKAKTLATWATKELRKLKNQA
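Inhibition scored from the CFP 486 nm/YFP 530 nm FRET ratio 45 min after adding 0.125 microM importin beta to 50 nM Rango biosensor preincubated 5 min with compound (room temperature, PBS with DTT, Tween-20, BSA). No-importin wells as positive control.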
miR-21 FLuc – miR-21 reporter, rising signal; HeLa miR-21 FLuc reporter, luciferase, 48 h; AID 2288; 340,000 tested, under 10 active; Potency, µM (titrated, usually from 38.3 µM), for the others: at the highest dose reporter change, positive = more light; active = well fitted rising curve with a large enough effect; inconclusive = small, poorly fitted or top-dose-only effect; inactive = no such curve, though single readings can be large or run the other way;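 also: % of control where 0% means no effect; miR-21 action dims this reporter so a rising signal means less miR-21 action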
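HeLa miR-21-FLuc reporter line, endogenous miR-21; 2000 cells/well in DMEM/10% FBS; compound titration up to ~40uM final, 48 h, 37 degree Celsius; luciferase detection reagent, 15 min lysis, CCD luminescence.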
An asterisk follows results filed as active; ? = inconclusive; · = not tested or not shown; & = joins results of further samples. A portion of the library (hit frequency here may not be typical).

1) CSc1cccc(NC(=S)N(Cc2ccccc2)Cc2cccnc2)c1
2) O=C1CC2(CCCC2)C(=O)N1CN1CCN(S(=O)(=O)c2ccc(Cl)c(Cl)c2)CC1
3) CCC(C)(O)c1[nH]c2ccc(C(F)(F)F)cc2c1C (configuration not stated)
4) N#Cc1ccc(Oc2cc(C(F)(F)F)nc(-c3ccccn3)n2)cc1
5) S=C(Nc1ccccc1Cl)N1CCCCC1
6) CC1=CC(C)C2C(=O)N(O)C(=O)C2C1 (configuration not stated)

assay / compound,1,2,3,4,5,6
GLA inh pH 4.5,-3.8,·,·,-4.0,2.0,3.6
Rango dissoc inh,-6.4%,19.7%,-9.7%,-15.3%,9.5%,-4.0%
Rango-impB inh,-2.9%,-2.1%,5.6%,-3.6%,-0.5%,-1.1%
miR-21 FLuc,3.1%,·,4.6%,0.4%,-1.9%,0.5%

7) O=C(Nc1ccc2oc(-c3ccc4ccccc4c3)nc2c1)c1cccs1
8) CCOC(=O)CSc1nc2c(cnn2-c2ccc(C)cc2)c(=O)[nH]1
9) O=C(O)Cc1sc(N/N=C\c2ccccc2)nc1-c1ccccc1
10) CC1CCCCC1NC(=O)C(C)N1C(=O)c2ccccc2C1=O (configuration not stated)
11) O=C(NNc1nc(-c2ccccc2)cs1)c1cccs1
12) O=C(Cc1ccc(F)cc1)Nc1cccc(-c2ccc3nncn3n2)c1

assay / compound,7,8,9,10,11,12
GLA inh pH 4.5,10.4,-1.3,0.5,·,-8.8,0.7
Rango dissoc inh,30.0%,-12.9%,-7.9%,9.3%,2.7%,15.3%
Rango-impB inh,4.0%,1.7%,?,-0.7%,-1.4%,-6.2%
miR-21 FLuc,-62.8%,-0.3%,-13.5%,·,8.7%,-0.5%

Single entries from above.
Value for O=C(Nc1ccc2oc(-c3ccc4ccccc4c3)nc2c1)c1cccs1 under Rango-impB inh: 4.0%
Value for CCOC(=O)CSc1nc2c(cnn2-c2ccc(C)cc2)c(=O)[nH]1 under GLA inh pH 4.5: -1.3

Carrying on:
13) Cc1ccc(-n2c3c(cc(C(=O)NCCCN4CCOCC4)c2=O)C(=O)CC(C)(C)C3)cc1
14) CN(CC(=O)Nc1ccc(Cl)c(S(=O)(=O)N(C)C)c1)Cc1ccccc1
15) COc1ccc(-c2c(C)nn3c(Cl)c(C)c(C)nc23)cc1
16) O=c1[nH]c2c(s1)C(c1cccnc1)C1C3CCC(C3)C1S2 (configuration not stated)
17) CCn1ccnc1[C@@H]1C[C@H]2CN(Cc3cccc(Cl)c3)C(=O)[C@]23CCCN13
18) Cc1ccc(-n2nnc3c(=O)n(Cc4ccccc4C)cnc32)cc1

assay / compound,13,14,15,16,17,18
GLA inh pH 4.5,-6.6,·,·,-4.3,-1.1,11.1
Rango dissoc inh,8.0%,15.1%,-15.0%,-2.2%,0.8%,4.8%
Rango-impB inh,-2.1%,-0.4%,-1.1%,3.0%,0.1%,1.5%
miR-21 FLuc,-9.4%,-31.3%,2.7%,1.4%,-0.7%,-2.3%

Full records, looked up by structure. Screens in order: GLA inh pH 4.5 | Rango dissoc inh | Rango-impB inh | miR-21 FLuc
Cc1ccc(-n2nnc3c(=O)n(Cc4ccccc4C)cnc32)cc1 reads 11.1 | 4.8% | 1.5% | -2.3%
CCn1ccnc1[C@@H]1C[C@H]2CN(Cc3cccc(Cl)c3)C(=O)[C@]23CCCN13 reads -1.1 | 0.8% | 0.1% | -0.7%

(next part)
19) C[C@H](NC(=O)c1ccco1)C(=O)N1CCN(c2ccc(C(F)(F)F)cn2)CC1
20) CC(=O)c1cccc(NC(=S)Nc2ccn(Cc3cccc4ccccc34)n2)c1
21) Cc1cc(NC(=O)Cc2ccc(Br)cc2)no1
22) Cc1ccc(NS(=O)(=O)c2ccc(C(C)C)cc2)cc1S(=O)(=O)N1CCOCC1
23) CC(C)C(=O)Nc1ccc(C(=O)N/N=C/C2CC3C=CC2C3)cc1 (configuration not stated)
24) O=C(COC(=O)CCNS(=O)(=O)c1ccccc1F)Nc1nnc(-c2ccccc2)o1

assay / compound,19,20,21,22,23,24
GLA inh pH 4.5,·,-7.0,·,·,3.4,·
Rango dissoc inh,11.6%,-5.7%,7.8%,-20.2%,26.5%,17.3%
Rango-impB inh,4.1%,-2.6%,-1.2%,0.0%,0.3%,3.7%
miR-21 FLuc,·,-1.7%,-6.2%,·,-3.4%,·

25) N#CCCN1CCCN(CCC#N)CCN(CCC#N)CCCN(CCC#N)CC1
26) CNc1[nH]ncc1[N+](=O)[O-]
27) COc1ccccc1NCC(=O)NN=C1CCS(=O)(=O)c2ccc(F)cc21
28) CCOC(=O)c1csc(NC(=O)C(C)(C)C)n1
29) COc1ccc(C(=O)NCC(=O)OCC(=O)NC(=O)c2ccc(C(C)(C)C)cc2)cc1OC
30) Cc1c(C(=O)c2ccccc2)oc2ccc3ccccc3c12

assay / compound,25,26,27,28,29,30
GLA inh pH 4.5,·,0.9,·,4.3,·,-2.5
Rango dissoc inh,-26.1%,1.1%,2.6%,-3.3%,3.8%,-2.5%
Rango-impB inh,7.5%,-0.9%,2.8%,-1.0%,-1.4%,1.6%
miR-21 FLuc,0.0%,-43.6%,·,-7.9%,·,-74.2%

31) CC(NC(=O)CCSc1nc(-c2ccco2)cc(C(F)(F)F)n1)c1ccccc1 (configuration not stated)
32) Clc1cnc(N/N=C/c2ccncc2)c(Cl)c1
33) Cc1ccc(Nc2nc3nonc3[nH]c2=O)cc1Cl
34) CCOC(=O)c1csc(NC(=O)c2ccc(S(=O)(=O)N3CCCC3)cc2)n1
35) Nc1ccc(-n2nncc2-c2ccco2)cc1
36) COc1ccc(NC(=O)c2cc(NC(=O)C3CCCCC3C(=O)O)ccc2N2CCOCC2)cc1 (configuration not stated)

assay / compound,31,32,33,34,35,36
GLA inh pH 4.5,-9.5,·,3.6,4.0,1.3,·
Rango dissoc inh,-9.3%,6.1%,-0.1%,5.2%,0.3%,15.7%
Rango-impB inh,-1.1%,0.9%,-4.5%,1.4%,-3.3%,0.1%
miR-21 FLuc,-3.8%,-28.8%,-9.8%,5.6%,-6.3%,-1.6%

37) COc1ccc(N2CCN(C(=O)Nc3ccccc3Cl)CC2)cc1
38) CCOC(=O)N1CCN(C(=O)CSc2nc3c(cnn3-c3ccc(Cl)cc3)c(=O)[nH]2)CC1
39) CCc1ccccc1Nc1nc(N)nc(COC(=O)CCC(=O)c2ccc(F)cc2)n1
40) O=C(CSc1ncn[nH]1)Nc1ccc(Br)cc1F
41) COc1ccc(N=C2C=CC(=O)O2)cc1
42) CCC(Sc1nc2sc(C(=O)OC)c(C)c2c(=O)n1N)C(=O)NCC1CCCO1 (configuration not stated)

assay / compound,37,38,39,40,41,42
GLA inh pH 4.5,5.0,-0.9,·,-1.9,·,3.7
Rango dissoc inh,8.5%,4.2%,-1.9%,1.6%,14.7%,-6.2%
Rango-impB inh,-0.6%,-0.3%,-1.6%,6.2%,-0.5%,-0.5%
miR-21 FLuc,3.3%&-11.2%,-3.7%,·,-14.0%,·,-10.6%

43) Cc1nn(C(=O)Cn2ccc([N+](=O)[O-])n2)c(C)c1Br
44) O=S(=O)(/C=C/c1ccccc1)N1CCN(c2ccccc2)CC1
45) CS(=O)(=O)c1cccc(C(=O)Nc2ccc(-c3nc4ccccc4[nH]3)cc2)c1
46) O=C(Cn1c(=O)oc2cc(S(=O)(=O)N3CCCC3)ccc21)Nc1ccc(C(F)(F)F)cc1
47) CC1c2cc3c(cc2CCN1C(=O)c1cccc(Cl)c1)OCCCO3 (configuration not stated)
48) O=C(Oc1ccc(-c2cnc3ccccc3n2)cc1)c1cc([N+](=O)[O-])ccc1Cl

assay / compound,43,44,45,46,47,48
GLA inh pH 4.5,10.9,5.3,·,5.6,·,15.7
Rango dissoc inh,-7.3%,8.6%,0.7%,33.4%,-15.1%,7.7%
Rango-impB inh,-4.3%,2.1%,1.5%,-0.8%,-0.1%,-1.2%
miR-21 FLuc,-2.5%,0.6%,-55.7%,-0.9%,10.9%,-7.6%

49) COc1ccccc1/C=N/NC(=O)NC12CC3CC(CC(C3)C1)C2
50) COc1ccc(-c2nc(CN3CCN(c4ccccc4OC)CC3)c(C)o2)cc1
51) O=C(CSc1nnnn1-c1ccccc1)Nc1nsc(-c2ccccc2)n1
52) CCn1c(=S)sc2c(=O)n(CC(=O)Nc3ccccc3OC)c(C)nc21
53) O=c1[nH]cc(-c2ccccc2)c(=O)[nH]1
54) CC(NC(=O)Cn1cc(C(=O)C2CC2)c2ccccc21)c1ccccc1 (configuration not stated)

assay / compound,49,50,51,52,53,54
GLA inh pH 4.5,·,1.8,2.3,·,-14.6,-0.3
Rango dissoc inh,-23.1%,-6.9%,-9.5%,-9.5%,2.1%,-8.0%
Rango-impB inh,1.9%,2.0%,2.3%,1.9%,-0.5%,-1.1%
miR-21 FLuc,-0.5%,7.2%,-7.6%,-0.9%,-4.5%,0.0%

55) O=C(O)[C@H](CSCc1ccccc1)NS(=O)(=O)c1ccc(F)cc1
56) COc1ccc(NS(=O)(=O)c2cccc3cccnc23)cc1Cl
57) CCOc1ccc(S(=O)(=O)N/N=C(\C)c2ccc3c(c2)OCO3)cc1
58) CC(=O)C[C@H]1c2cc(C(F)(F)F)ccc2S(=O)(=O)N1c1ccccc1
59) Cc1cccc(C)c1NC(=O)COc1ccc2c(C)c(Cc3ccccc3)c(=O)oc2c1
60) O=C(CCCN1C(=O)c2ccccc2C1=O)Nc1nccs1

assay / compound,55,56,57,58,59,60
GLA inh pH 4.5,-3.0,·,·,·,-2.6,6.5
Rango dissoc inh,1.9%,-0.1%,8.6%,-14.4%,2.5%,-16.7%
Rango-impB inh,-3.4%,5.6%,4.2%,0.1%,2.0%,1.1%
miR-21 FLuc,1.0%,-0.9%,0.6%,·,-3.8%,0.1%

61) O=C1CC(c2ccco2)CC(O)=C1C=NCCN1CCN(C(=O)Nc2ccc(Cl)cc2)CC1 (configuration not stated)
62) Cc1cccc(NC(=O)CC2SC(=O)N(c3ccccc3)C2=O)c1 (configuration not stated)
63) CCOc1ccc2ccccc2c1/C=N\NC(=O)OC
64) O=S(=O)(Nc1ccc2c(c1)nc1n2CCOC1)c1ccccc1
65) COc1ccc(Cl)cc1Nc1nc(NCCO)nc(N2CCCCC2)n1
66) O=C(O)c1ccc2ncsc2c1

assay / compound,61,62,63,64,65,66
GLA inh pH 4.5,-3.0,-7.9,-7.5,4.5,·,-1.8
Rango dissoc inh,11.1%,-7.4%,9.5%,11.3%,-4.1%,4.0%
Rango-impB inh,-1.0%,7.2%,-0.6%,-1.5%,4.2%,-1.9%
miR-21 FLuc,-6.2%,-7.2%,-6.4%,-2.3%,·,-18.1%

67) Cc1cccc(/C(N)=N/OC(=O)c2ccc(Cl)cc2Cl)c1
68) COc1cccc2oc(-c3ccco3)cc(=O)c12
69) O=C(O)CNC(=O)c1nc(-c2ccccc2)n(-c2ccccc2)n1
70) COc1cccc(NC2=C(NCCO)C(=O)c3ccccc3C2=O)c1
71) CCn1c(/C=C/c2ccccc2C)nc2ccccc2c1=O
72) CCCc1cc(=O)oc2cc(OCC(=O)Nc3ccccn3)ccc12
73) C/C(=C\c1ccccc1)CN1CCC(C(=O)N2CCCCC2)CC1
74) Cc1ccc(S(=O)(=O)Nc2nc(-c3ccc(F)cc3)cs2)cc1
75) Cc1ccc(OCC(=O)N2CC(C)CC(C)C2)c([N+](=O)[O-])n1 (configuration not stated)

assay / compound,67,68,69,70,71,72,73,74,75
GLA inh pH 4.5,0.5,-1.9,6.7,·,0.8,·,2.6,-5.3,·
Rango dissoc inh,1.0%,-16.7%,11.9%,-2.0%,15.9%,-4.3%,18.8%,-4.1%,8.2%
Rango-impB inh,-4.1%,2.2%,1.8%,1.3%,0.1%,-1.5%,0.1%,1.4%,-0.8%
miR-21 FLuc,-51.4%,-15.0%,0.1%,-18.6%,-38.3%,-44.7%,-6.9%,-22.5%,·

Screening results as filed in PubChem BioAssay.
